Screening data from PubChem BioAssay.
RGS16-Gao HTS: regulators of human RGS16-Galphao interaction; O15492+P09471; actives 0.38% (n = 220,000); binding response (% of control), % at 10 µM; bead-based flow cytometry RGS16-Galphao binding, fluorescence; actives lie on both sides;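 active means below 25% or above 175%, edge rows of some plates excepted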;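 further: Galphao activated by GDP with aluminum fluoride before binding; 100% = wells without compound and 0% = beads without RGS; some results beyond the cut were filed as inactive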
GALR2 ag: agonists of human galanin receptor 2 (GALR2); actives 0.48% (n = 140,000); activation, %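 (tested at 5 µM)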; GALR2-expressing cells, agonist activation read-out; AID 803;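 active means above mean plus 3 SD of all compounds, about 5% in these data, not always enough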;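 further: 0% = vehicle buffer wells and 100% = reference agonist at full effect; tested in CHO reporter cells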
INS promoter inh: TRM-6 insulin promoter activity inhibition. TRM-6 cells (human fetal islet line), insulin promoter-eGFP reporter, imaging; reporter expression induced with tamoxifen. actives 0.9% (n = 130,000). inhibition, % at 2 µM;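 active means inhibition above the mean plus 3 SD, with well images judged a real hit on visual review, cut at about 60% in these data, passing the limit was not always enough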
HSV augment: HSV replication enhancement | HSV replication augmentation in cells, fold increase | maximum fold increase | actives 0.005% (n = 220,000) | AID 1956;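 active means peak rise of 1.5-fold or more in the series; tested in PC3 cells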;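 further: first round at 10 µM; read as green reporter fluorescence; hits show the peak of a series up to 25 µM; 1 = signal of infected wells without compound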
PKD1 inh: PKD1 (human) kinase inhibition; PKD1 kinase fluorescence polarization assay; inhibition, %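 (about 10 µM by stock and volumes)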; actives 0.056% (n = 200,000); AID 797;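 active means inhibition of 50% or more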;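 further: controls were vehicle for no effect and a reference inhibitor for full effect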
Target sequence (Q15139 whole entry, looked up): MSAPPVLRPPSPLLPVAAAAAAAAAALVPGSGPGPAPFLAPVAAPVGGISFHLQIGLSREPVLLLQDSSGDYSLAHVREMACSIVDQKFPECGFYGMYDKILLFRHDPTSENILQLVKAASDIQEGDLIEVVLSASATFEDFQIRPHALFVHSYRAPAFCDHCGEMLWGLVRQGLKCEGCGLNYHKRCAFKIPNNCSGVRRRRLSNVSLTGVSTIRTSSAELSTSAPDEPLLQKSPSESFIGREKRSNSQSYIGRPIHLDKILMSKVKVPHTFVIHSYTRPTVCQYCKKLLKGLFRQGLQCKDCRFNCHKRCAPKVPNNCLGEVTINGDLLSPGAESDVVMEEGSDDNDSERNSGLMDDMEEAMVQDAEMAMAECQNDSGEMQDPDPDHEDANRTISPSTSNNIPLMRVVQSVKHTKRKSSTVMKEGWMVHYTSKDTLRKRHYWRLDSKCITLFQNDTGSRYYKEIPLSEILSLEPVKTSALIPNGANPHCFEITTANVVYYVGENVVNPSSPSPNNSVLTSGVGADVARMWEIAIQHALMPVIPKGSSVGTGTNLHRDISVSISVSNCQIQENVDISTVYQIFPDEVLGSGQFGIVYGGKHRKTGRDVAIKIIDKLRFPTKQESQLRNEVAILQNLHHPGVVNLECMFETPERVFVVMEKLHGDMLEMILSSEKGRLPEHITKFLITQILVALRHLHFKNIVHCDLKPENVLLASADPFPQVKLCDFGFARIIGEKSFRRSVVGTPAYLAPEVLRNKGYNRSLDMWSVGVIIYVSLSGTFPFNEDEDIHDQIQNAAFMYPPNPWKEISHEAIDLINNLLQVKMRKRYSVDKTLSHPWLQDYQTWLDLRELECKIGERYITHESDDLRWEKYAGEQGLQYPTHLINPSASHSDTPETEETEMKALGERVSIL
INS promoter inh cell count: recorded beside INS promoter inh, whose call it bears; normalized cell count, %; measured here: cell count, toxicity; reference of the scale not given here;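 cells exposed to compound for 48 h; stained nuclei by imaging scaled within each plate; lower means fewer cells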
HSV augment primary fold: further read-out of HSV augment, marked with its call; fold increase; compound at 10 µM; measured here: primary screen fold increase 10 uM; tested in PC3 cells;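 GFP signal in the first replicate; 1 = infected wells without compound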
Active calls of the source: *; i = inactive; . = not tested or not shown.

SMILES	RGS16-Gao HTS	GALR2 ag	INS promoter inh	INS promoter inh cell count	HSV augment	HSV augment primary fold	PKD1 inh
Nc1ccccc1C(=O)OCC(=O)c1ccc2c(c1)OCCO2	108	.	.	.	i	0.78	5
Cn1c(=O)cc(SCC(=O)N2CCC3(CC2)OCCO3)c2ccc(Cl)cc21	79	-2.8	.	.	i	0.92	-4
CC(=O)c1c(O)n(C2CCCCCC2)c(=O)[nH]c1=O	101	-0.1	-145	160	i	0.72	-3
CC(=O)N(C1=NCCCS1)c1ccccc1F	100	-3.1	.	.	i	0.99	-4
COCCNC(=O)c1c(NC(=O)c2ccco2)n(Cc2ccccc2)c2nc3ccccc3nc12	96	1.6	-29	106	i	1.2	5
Cc1c(NP(=O)(C(C)(C)C)C(C)(C)C)c(=O)n(-c2ccccc2)n1C	100	.	-30	111	i	0.97	0
COc1ccc(C=O)cc1O	100	-0.5	14	122	i	0.91	0
OC1CCCCC1N1CCC(c2ccccc2)CC1 (stereo not drawn)	100	-0.9	-33	126	i	0.89	-5
CC(C)n1c(=O)c(C=Nc2ccc(Br)cc2)c(O)n(Cc2ccco2)c1=O	56	-0.3	47	98	i	1.2	9
Cc1cc(/C=C2/C(=O)NC(=O)N(Cc3ccco3)C2=O)c(C)n1-c1ccccc1	112	-1.7	25	77	i	1.2	5
O=C1NC(=O)[C@]2(Cc3ccccc3N3CCN(c4ccccc4)CC32)C(=O)N1Cc1ccccc1 (stereo partly drawn)	99	-2.0	.	.	i	0.94	-6
COc1cc2[nH]c(=O)n(-c3cccc(Cl)c3)c(=O)c2cc1OC	94	-0.5	-20	133	i	0.92	6
Cn1c(O)c(C=Nc2ccc(Cl)cc2)c(=O)n(C)c1=O	70	-1.6	-16	87	.	.	-9
O=C(O)C1CSC(c2cccnc2)N1 (stereo not drawn)	93	0.1	.	.	i	0.98	-5
c1ccc2c(CN3CCCCCCC3)c[nH]c2c1	100	-0.1	.	.	.	.	6
CC(C)(C)n1cccc1/C=C1\C(=O)NC(=O)N(c2ccccc2)C1=O	95	-0.4	26	84	i	0.97	1
COc1ccc(-n2c(O)c(C=NCCN(C)C)c(=O)[nH]c2=O)cc1	101	.	.	.	i	1.1	.
Cc1ccc(N2C(=O)CC(=O)NC2=O)cc1	93	-2.1	30	117	i	0.82	-5
Cc1cc(/C=C2\C(=O)NC(=O)N(c3ccc(F)cc3)C2=O)c(C)n1-c1ccc(C(=O)O)cc1	104	.	.	.	i	0.96	-2
NC(=O)CN1CCCC1=O	45	0.1	-19	69	i	0.73	-6
Cc1cc(NC(=O)COC(=O)c2c(C)nn(Cc3ccccc3)c2Cl)no1	91	-1.3	30	106	i	0.96	-2
O=C(c1cccc(C(F)(F)F)c1)C1CCCN(Cc2ncc[nH]2)C1 (stereo not drawn)	99	.	.	.	i	0.91	-3
c1ccc2c(CN3CCN(C4CCCCC4)CC3)c[nH]c2c1	107	-2.6	.	.	i	0.99	3
O=C(CSC1c2ccccc2-c2ccccc21)N/N=C/c1ccccc1C(=O)O	72	.	.	.	i	0.88	0
COc1ccc2nc(/N=C/c3c(O)n(-c4cccc(Cl)c4)c(=O)[nH]c3=O)sc2c1	107	-2.7	54	133	i	1.1	-3
CN1C(=O)C(=Cc2ccc(N3CCOCC3)c([N+](=O)[O-])c2)C(=O)N(C)C1=O	100	.	18	98	i	0.96	1
O=c1[nH]c(=O)n(Cc2ccccc2)c(O)c1C=NCCN1CCNCC1	102	-2.0	-300	56	i	0.77	5
Cc1ccccc1Cc1c(C)nc2nc(SCC(=O)N3CCC4(CC3)OCCO4)nn2c1C	52	-1.5	-43	73	i	0.98	-4
CN1C(=O)CC(c2ccccc2)Nc2ccccc21 (stereo not drawn)	102	.	.	.	i	0.99	.
CCOP(=O)(OCC)C(NC(=O)c1ccccc1C)C(Cl)(Cl)Cl (stereo not drawn)	102	-1.4	.	.	i	0.9	-9
CCOP(=O)(C#Cc1ccccc1)C(O)c1ccc(Br)cc1 (stereo not drawn)	102	.	.	.	i	0.94	.
O=C1CN=C(c2ccccc2)c2ccccc2N1Cc1ccc(C(F)(F)F)cc1	93	-0.9	32	123	i	1.2	-24
Cc1cccc(C)c1OP(N)(=O)OCC(F)(F)F (stereo not drawn)	111	-1.4	22	53	i	1.1	-4
CC1(C)CN=C(Nc2nc3ccccc3s2)S1	108	0.5	-248	45	i	0.94	-6
CC(Cc1ccccc1)NC(=O)Cc1ccc(N(C)C)cc1 (stereo not drawn)	114	0.3	43	127	i	0.95	5
COC(=O)C1=Nc2ccccc2/C1=C\c1c(O)n(C)c(=O)n(C)c1=O	100	.	.	.	i	1.1	.
CC1=NOC2(C)Nc3ncnn3C(c3ccccc3)C12 (stereo not drawn)	102	-1.0	18	83	i	0.87	-3
Cc1ccc(-c2nn(Cc3ccccc3)cc2C(=O)O)cc1	93	.	.	.	i	0.84	.
Cc1ccc(-c2nc3ccc(Cl)cc3n2OC(=O)N(C)C)cc1	107	-0.4	-45	98	i	1	-9
O=C(c1ccc(Cl)cc1)C1CCCN(Cc2ccc3c(c2)OCCO3)C1 (stereo not drawn)	103	.	.	.	i	0.96	3

14 compounds out of the list, arranged by number of heavy atoms, smallest number first:
SMILES	RGS16-Gao HTS	GALR2 ag	INS promoter inh	INS promoter inh cell count	HSV augment	HSV augment primary fold	PKD1 inh
COc1ccc(C=O)cc1O	100	-0.5	14	122	i	0.91	0
O=C(O)C1CSC(c2cccnc2)N1 (stereo not drawn)	93	0.1	.	.	i	0.98	-5
Cc1ccc(N2C(=O)CC(=O)NC2=O)cc1	93	-2.1	30	117	i	0.82	-5
Cc1cccc(C)c1OP(N)(=O)OCC(F)(F)F (stereo not drawn)	111	-1.4	22	53	i	1.1	-4
CC1=NOC2(C)Nc3ncnn3C(c3ccccc3)C12 (stereo not drawn)	102	-1.0	18	83	i	0.87	-3
Cc1ccc(-c2nn(Cc3ccccc3)cc2C(=O)O)cc1	93	.	.	.	i	0.84	.
Cc1ccc(-c2nc3ccc(Cl)cc3n2OC(=O)N(C)C)cc1	107	-0.4	-45	98	i	1	-9
COc1ccc(-n2c(O)c(C=NCCN(C)C)c(=O)[nH]c2=O)cc1	101	.	.	.	i	1.1	.
COC(=O)C1=Nc2ccccc2/C1=C\c1c(O)n(C)c(=O)n(C)c1=O	100	.	.	.	i	1.1	.
O=c1[nH]c(=O)n(Cc2ccccc2)c(O)c1C=NCCN1CCNCC1	102	-2.0	-300	56	i	0.77	5
Cn1c(=O)cc(SCC(=O)N2CCC3(CC2)OCCO3)c2ccc(Cl)cc21	79	-2.8	.	.	i	0.92	-4
O=C1CN=C(c2ccccc2)c2ccccc2N1Cc1ccc(C(F)(F)F)cc1	93	-0.9	32	123	i	1.2	-24
Cc1cc(/C=C2\C(=O)NC(=O)N(c3ccc(F)cc3)C2=O)c(C)n1-c1ccc(C(=O)O)cc1	104	.	.	.	i	0.96	-2
COCCNC(=O)c1c(NC(=O)c2ccco2)n(Cc2ccccc2)c2nc3ccccc3nc12	96	1.6	-29	106	i	1.2	5

Pulled by compound from the list above, 2 records:
SMILES	RGS16-Gao HTS	GALR2 ag	INS promoter inh	INS promoter inh cell count	HSV augment	HSV augment primary fold	PKD1 inh
O=C(c1cccc(C(F)(F)F)c1)C1CCCN(Cc2ncc[nH]2)C1 (stereo not drawn)	99	.	.	.	i	0.91	-3
Cc1ccc(-c2nc3ccc(Cl)cc3n2OC(=O)N(C)C)cc1	107	-0.4	-45	98	i	1	-9

These rows are one share of the data; the hit share may differ from the screen's.
